Screening results (PubChem)
Arbovirus anti – blocks arbovirus infection; arbovirus infection cell-based antiviral screen; inhibition, % at 10 µM; 200,000 compounds, 0.37% hits; AID 1251;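 active = inhibition from about 30%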;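 note: bluetongue infection of BSR cells; cell survival read as ATP light after 72 h; 0% = infected wells without compound and 100% = uninfected wells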
YopH inh – YopH (Yersinia) phosphatase inhibition | fluorescence Ex485/Em525 | inhibition, %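 (about 10 µM by stock and volumes)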 | 140,000 compounds, 0.16% hits | AID 898;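 active = inhibition of 50% or more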;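 note: controls were vehicle for no effect and minimum signal wells for full effect; inactives centre near -20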
Mtb betalactam – beta-lactam sensitization of Mtb H37Rv | M. tuberculosis H37Rv growth with meropenem, percent inhibition; hits of this screen are not shown here | inhibition, % at 25 µM | 330,000 compounds, 0.27% hits | AID 434955;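 active = about 74% or more and at least 40 points above the plate without the antibiotic, then above 30% in a dose series; inconclusive = first-round hits that could not be retested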;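 note: growth measured after seven days incubation then overnight dye step; 0% = bacteria only wells and 100% = bacteria with antibiotic; twin plates without the antibiotic show which effects depend on it; some results filed as inactive read as strong as hits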
Mtb growth – M. tuberculosis H37Rv growth inhibitors, H37Rv strain (AID 1626); M. tuberculosis H37Rv growth inhibition; higher % means a stronger effect; one-dose inhibition, % at 10 µM; IC50 in µM for titrated hits; 220,000 compounds, 0.95% hits;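 active = confirmed in a dose series; inconclusive = inhibition above 80% but not taken into the dose series; inactive = below 80% or under 30% at every dose of the series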;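 note: bacteria incubated seven days before Alamar blue readout; 0% = bacteria only wells and 100% = bacteria with antibiotic wells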
RecA splice inh – inhibitors of M. tuberculosis RecA intein splicing | P9WHJ3 | 290,000 compounds, 0.75% hits | inhibition, %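 (about 9 µM by stock and volumes)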 | AID 2221 | cell-free RecA intein splicing, fluorescence; in the data active = inhibition above about 30%; inconclusive = no clear call, values can overlap the other calls;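 note: 0% = vehicle wells and 100% = reference inhibitor control wells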
Target sequence (P9WHJ3 whole entry, looked up, canonical isoform): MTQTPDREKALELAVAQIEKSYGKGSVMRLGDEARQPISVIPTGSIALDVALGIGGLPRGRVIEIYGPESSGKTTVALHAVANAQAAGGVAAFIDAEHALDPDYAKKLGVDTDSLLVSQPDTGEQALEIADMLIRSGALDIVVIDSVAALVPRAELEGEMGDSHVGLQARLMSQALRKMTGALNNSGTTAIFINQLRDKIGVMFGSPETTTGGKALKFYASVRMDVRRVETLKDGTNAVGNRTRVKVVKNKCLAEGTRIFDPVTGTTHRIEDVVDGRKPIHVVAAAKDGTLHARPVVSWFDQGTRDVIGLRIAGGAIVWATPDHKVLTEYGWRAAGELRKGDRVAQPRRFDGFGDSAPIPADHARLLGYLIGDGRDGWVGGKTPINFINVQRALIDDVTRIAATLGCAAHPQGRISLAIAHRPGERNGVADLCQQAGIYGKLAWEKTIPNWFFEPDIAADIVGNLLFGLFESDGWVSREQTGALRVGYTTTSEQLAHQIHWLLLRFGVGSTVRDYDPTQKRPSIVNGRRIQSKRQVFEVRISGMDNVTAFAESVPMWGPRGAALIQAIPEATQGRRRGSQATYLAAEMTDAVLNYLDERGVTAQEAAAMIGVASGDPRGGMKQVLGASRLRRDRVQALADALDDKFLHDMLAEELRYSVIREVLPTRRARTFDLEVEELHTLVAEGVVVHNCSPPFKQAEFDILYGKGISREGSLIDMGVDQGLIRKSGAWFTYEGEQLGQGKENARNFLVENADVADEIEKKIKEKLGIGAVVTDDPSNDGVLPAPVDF
Arbovirus anti repeat – recorded beside Arbovirus anti, whose call it bears; inhibition, %; measured here: 10K subset replicate screen; many hits read low in the repeat;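 first of two repeat runs on a subset; 0% = infected and 100% = uninfected wells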
* marks the source's active call; other numbers are inactive results; ? = inconclusive; . = no result given. A portion of the library; count on the stated rates, not on these rows.

SMILES	Arbovirus anti	YopH inh	Mtb betalactam	Mtb growth	RecA splice inh	others
Cc1cc([N+](=O)[O-])nn1CC(=O)NC1CCCCC1	.	.	0	.	-1.4
O=S(=O)(Nc1ccc(F)cc1)c1ccc(NC(=S)Nc2ccccc2)cc1	3	0	-10	.	4.4
COc1ccc(NC(=O)CN2CCN(S(=O)(=O)c3ccc(Cl)cc3)CC2)cc1Cl	10	-48	1	7%	0.8
NS(=O)(=O)c1ccc(CCNC(=O)C2CCC(Cn3c(=S)[nH]c4ccccc4c3=O)CC2)cc1 (configuration not stated)	-8	.	1	-5%	-0.1
Oc1ccc(-c2cc(-c3ccc(O)cc3)nc(-c3ccccc3)n2)cc1	.	.	100	.	0.4
ONC(=Nc1ccccc1)C(=Nc1ccccc1)NO	5	-37	4	3%	-6.2
N#Cc1ccccc1NC(=O)c1cc(=O)c2ccccc2o1	1	.	0	9%	0.0
CC(=O)Nc1cccc(NC(=O)CSc2nnc(Cc3cccn3C)n2-c2ccc(C)cc2)c1	3	-29	-1	-6%	3.0
CCOC(=O)c1ccc(NNC(=O)CC)c([N+](=O)[O-])c1	22	.	3	-3%	0.8
CCn1cc(C(=O)NCCCOC)c(=O)c2cc(S(=O)(=O)N3CCCC3)ccc21	.	.	6	.	-0.8
COC(=O)c1sccc1NC(=S)N1CCN(c2cccc(C)c2C)CC1	2	-29	-10	-4%	2.1
CCOC(=O)c1c(NC(=O)C(C)NCc2ccco2)sc2c1CCC(C)C2 (configuration not stated)	-17	-13	-15	-6%	4.7
CC(C)OC(=O)CC(=O)CSc1nc2c(c(-c3cccs3)c1C#N)CCC2	9	-42	-5	-1%	-3.0
O=C(OCCC1Oc2cccnc2NC1=O)c1ccc(F)cc1 (configuration not stated)	-4	.	-3	2%	-3.3
Cc1ccc(OCCNC(=O)c2ccc3ccccc3n2)cc1	.	.	0	.	10
C/C(=N/NC(=O)c1ccc(Br)o1)c1cccs1	.	.	1	.	-0.8
Cc1ccc(-c2nc(=S)c3c(n2Cc2ccco2)CC(C)(C)OC3)cc1	3	-36	9	-7%	7.1	Arbovirus anti repeat=15
Cc1ccc(C)c(NC(=S)NNC(=O)c2ccco2)c1	6	-17	0	-4%	2.3
CCN(CC)C(=O)c1c(-c2ccccc2)oc2ccc(O)cc12	.	.	-3	.	-1.0
CC(C)c1ccc(NC2CCCN(C(=O)c3ccncc3)C2)cc1 (configuration not stated)	.	.	5	.	1.7
CCN(CC)CCNC(=O)c1ccc(NC(=O)c2ccccc2-c2ccc(C(F)(F)F)cc2)cc1	.	.	5	.	1.3
C/C(=N\NC(=O)c1cccnc1)c1ccc(OC2OCCOC2Oc2ccc(/C(C)=N/NC(=O)c3cccnc3)cc2)cc1 (configuration not stated)	-3	.	2	8%	13
O=C(CSc1nnnn1-c1ccc(O)cc1)N1N=C(c2ccc3ccccc3c2)CC1c1ccccc1 (configuration not stated)	1	.	-7	-2%	-3.2
COc1cccc(NC(=S)NN2C(C)CCCC2C)c1 (configuration not stated)	-3	-7	-4	6%	1.7
CCOC(=O)C1=C(C)OC(N)=C(C#N)C1c1cc2cc(C)ccc2nc1N1CCCCC1 (configuration not stated)	4	5	-1	.	7.4

Other compounds.
SMILES	Arbovirus anti	YopH inh	Mtb betalactam	Mtb growth	RecA splice inh	others
O=C(COc1ccc(-c2ccccc2)cc1)N/N=C/c1cc(O)ccc1Br	-34	2	88	12%	18
CCCCn1c(N)c(N(CCOC)C(=O)C2CCN(c3ncnc4sc(C)c(C)c34)CC2)c(=O)[nH]c1=O	.	.	-14	.	-0.3
Cc1noc(C)c1C(=O)Nc1nnc(CC(C)C)s1	.	.	-3	.	-1.5
Nn1c(-c2ccccn2)nnc1-c1ccccn1	4	-24	-9	-2%	-0.5
CCCCSc1nc2c(cc1C#N)CCC2	-4	2	-5	2%	-0.6
COc1ccccc1OCCNC(=O)c1cc(=O)[nH]c2ccccc12	.	.	3	-6%	1.8
CCOc1ccc(OCC)c(S(=O)(=O)n2cnc(C)c2)c1	.	.	4	.	1.6
COc1ccc(N(/N=C2\Sc3ccccc3C2=O)C(C)=O)cc1	-5	.	.	4%	1.7
O=c1c2ccccc2nc(SCc2nnc(-c3ccccc3)o2)n1-c1ccc(F)cc1F	-1	-1	2	8%	12
COc1cc(F)ccc1CN1CCC(n2nccc2NC(=O)C2CCOC2)CC1 (configuration not stated)	.	.	?	.	1.9
CSc1nc2c(c(=O)[nH]1)C(c1cccc(Cl)c1Cl)CC(=O)N2 (configuration not stated)	16	.	-1	-4%	2.4
Cc1c(NP(=O)(Oc2ccccc2F)Oc2ccccc2F)c(=O)n(-c2ccccc2)n1C	3	-28	-3	-5%	-0.3
CCOC(=O)c1cccc(S(=O)(=O)N(CCO)Cc2cc3cc(OC)ccc3[nH]c2=O)c1	0	-30	6	-7%	0.3
C=CCC1(CC=C)CCCN1C(=O)CC1C(=O)NCCN1Cc1ccc(OC)c(OC)c1 (configuration not stated)	1	.	2	7%	1.3
Cc1ccc(C)c(CSc2nnc(C)c(=O)n2N)c1	-6	.	.	-6%	-12
COCCNC(=S)Nc1ccc2[nH]c(=O)[nH]c2c1	2	.	2	0%	-1.7
CCOC(=O)C1=C(N)N(c2ccccc2)C2=C(C(=O)CCC2)C1c1cccnc1 (configuration not stated)	8	-46	-1	1%	-0.6
CC(C)(C)c1ccc(SCCc2ccccn2)cc1	.	.	-7	8%	7.6
Cc1cccc(OCC(=O)Nc2ccc(CN3CCOCC3)cc2)c1C	.	.	-12	.	-0.1
O=[N+]([O-])c1ccc(-c2nc(-c3cccs3)c(-c3cccs3)[nH]2)cc1	-33	-24	99	17%	-3.7
Cc1ccc(N2C(=O)CC(NCc3ccc4c(c3)OCO4)C2=O)cc1Cl (configuration not stated)	-6	-5	-7	-3%	-0.9
Cc1cc(C)cc(NC(=O)CN2C(=O)NC(C)(c3ccccc3)C2=O)c1 (configuration not stated)	-4	-17	-12	1%	3.2
C/C(=N/NC(=O)c1ccco1)c1cccc(NC(=O)c2ccc(C)o2)c1	-6	10	-2	-6%	0.6
CSC1=NC2(C)CCCCC2C12C=CC(=O)C=C2 (configuration not stated)	.	.	-12	1%	0.5
COc1ccccc1CCN=C(N)NS(=O)(=O)c1ccc(C)cc1	8	.	-9	-9%	1.5

The listing continues.
SMILES	Arbovirus anti	YopH inh	Mtb betalactam	Mtb growth	RecA splice inh	others
O=C(NC1CCCCC1)C(c1ccncc1)N(Cc1ccc2c(c1)OCO2)C(=O)c1cnsn1 (configuration not stated)	15	-24	-2	1%	-0.9
N#CC1(NC(=O)CSc2nc3ncc(Cl)cc3[nH]2)CCCCC1	.	.	-10	.	-6.1
COc1ccccc1NC(=S)N1CCCC1	3	7	-3	6%	-0.7
Cc1nc(C)c(C(=O)O)c(-c2ccsc2)c1C(=O)O	.	.	3	-3%	-0.1
Cc1nn(Cc2ccc(Cl)cc2Cl)c(Cl)c1C(=O)O	6	.	-7	2%	-1.3
CN1CCN(CC(=O)Nc2nc(-c3ccccc3)cs2)CC1	7	-29	-12	.	-4.0
CCCCNC(=O)/C(C#N)=c1\s/c(=C\c2ccccc2OC(F)F)c(=O)n1CCCOC	-6	-39	5	-3%	-21
CCCCNS(=O)(=O)c1ccc(OC)c2ncccc12	-6	-38	-4	3%	0.5
CCN(CC)C(=O)c1ccc2c(c1)C1C=CCC1C(C(=O)O)N2 (configuration not stated)	.	.	3	.	8.5
Cc1c(C(=O)NCc2n[nH]c(=S)n2-c2ccc(F)cc2)cccc1[N+](=O)[O-]	-3	.	2	.	0.0
CCOC(=O)c1sc(NC(=O)c2ccncc2)nc1C	-4	-31	1	-4%	-6.8
O=C(NCc1ccc2c(c1)OCO2)c1cc(F)c(F)cc1Cl	.	.	-1	.	-1.5
Cc1ccc2nc(-c3cccc(Br)c3)cc(C(=O)NC3=NCCS3)c2c1	1	.	98	6%	8.5
Cc1cccc2sc(NC(=O)Cn3cccc3)nc12	-3	-23	-2	0%	3.9
OCCN1CCN(C(=S)NC2CCCC2)CC1	7	.	-1	2%	-1.2
Cn1cnc2cc(NCc3ccccc3Cl)ccc21	.	.	1	.	2.0
O=C(OCC(=O)N1CCN(c2ccccc2)CC1)C1=COCCO1	-1	-41	99	27%	2.3
O=C(CCCN1C(=O)c2cccc3cccc(c23)C1=O)N1CCN(c2ccccn2)CC1	20	-14	1	15%	2.7
O=C(Nc1cccc(F)c1)c1c(O)c2cccc3c2n(c1=O)CCC3	2	.	7	4%	-0.2
CCCCN(c1nc2ccccc2nc1Cl)S(=O)(=O)c1ccc(C)cc1	.	.	4	.	4.9
CCOC(=O)C1=C(c2ccc(OC)cc2)C(=O)c2ccccc2C1=O	-35	17	82	49%	84*
Cc1ccc(S(=O)(=O)NCCSc2nnnn2-c2cc(C)ccc2C)cc1	-3	-43	-1	5%	6.0
Cc1c(C(=O)N2CCC(C)CC2)sc2ncn(CC(=O)N3CCC(C)CC3)c(=O)c12	.	.	-2	.	3.5
O=C(Cn1cnc2scc(-c3ccc(F)cc3)c2c1=O)N1CCOCC1	3	-5	-4	?	-2.4
O=C(c1ccc2c3c(cccc13)CC2)C1CCCN(Cc2ccc(OCCO)cc2)C1 (configuration not stated)	-27	.	5	11%	-2.4

Additional structures follow:
SMILES	Arbovirus anti	YopH inh	Mtb betalactam	Mtb growth	RecA splice inh	others
CN(C)CCNC(=S)Nc1ccccc1Cl	3	-24	-4	-2%	-1.8
COc1ccc(CCN(C)C2CCCN(C(=O)c3sccc3C)C2)cc1OC (configuration not stated)	.	.	-2	.	-1.9
c1ccc(CCc2ccccc2-c2nc(-c3cccnc3)no2)cc1	-2	-30	60	6%	-2.8
CC(C)[C@H](NC(=O)c1cccc(S(=O)(=O)N2CCOCC2)c1)C(=O)Nc1nc2ccccc2s1	-18	-19	6	16%	2.5
CCCn1c(=O)cc(N)n(-c2ccc(OC(F)(F)F)cc2)c1=O	.	.	-7	.	-2.4
Cc1ccccc1C(=O)NCC(=O)NNC(=S)NC(=O)c1ccccc1C	-4	-28	-1	9%	-2.2
C[N+](C)(C)CCCNC(=O)c1ccc(/C=N/O)nc1	7	.	-1	2%	-2.1
CCOc1ccc(OCC)c(NC(=O)C2CCN(S(=O)(=O)c3cnc[nH]3)CC2)c1	6	4	-10	-3%	.
Cc1[nH]c2ccccc2c1/C=N/NC(=O)CNC(=O)c1ccc2c(c1)OCO2	-4	5	3	4%	0.8
CS(=O)(=O)Nc1ccccc1C(=O)Nc1cc2c(cc1C(=O)O)OCCCO2	.	.	0	.	2.2
O=[N+]([O-])c1nn(-c2ccccc2)n(O)c1=NC1CCN(Cc2ccccc2)CC1	-19	.	-5	1%	-0.1
Cc1cccc2sc(NC(=O)c3ccc(NS(=O)(=O)c4cccs4)cc3)nc12	14	-22	4	6%	0.5
CCOC(=O)c1ccccc1NC(=O)CN(c1ccccc1C)S(C)(=O)=O	0	-21	8	-4%	1.9

In the list so far, 10 have an aryl thioether with sulfur outside any ring:
SMILES	Arbovirus anti	YopH inh	Mtb betalactam	Mtb growth	RecA splice inh	others
CC(=O)Nc1cccc(NC(=O)CSc2nnc(Cc3cccn3C)n2-c2ccc(C)cc2)c1	3	-29	-1	-6%	3.0
CC(C)OC(=O)CC(=O)CSc1nc2c(c(-c3cccs3)c1C#N)CCC2	9	-42	-5	-1%	-3.0
O=C(CSc1nnnn1-c1ccc(O)cc1)N1N=C(c2ccc3ccccc3c2)CC1c1ccccc1 (configuration not stated)	1	.	-7	-2%	-3.2
CCCCSc1nc2c(cc1C#N)CCC2	-4	2	-5	2%	-0.6
O=c1c2ccccc2nc(SCc2nnc(-c3ccccc3)o2)n1-c1ccc(F)cc1F	-1	-1	2	8%	12
CSc1nc2c(c(=O)[nH]1)C(c1cccc(Cl)c1Cl)CC(=O)N2 (configuration not stated)	16	.	-1	-4%	2.4
Cc1ccc(C)c(CSc2nnc(C)c(=O)n2N)c1	-6	.	.	-6%	-12
CC(C)(C)c1ccc(SCCc2ccccn2)cc1	.	.	-7	8%	7.6
N#CC1(NC(=O)CSc2nc3ncc(Cl)cc3[nH]2)CCCCC1	.	.	-10	.	-6.1
Cc1ccc(S(=O)(=O)NCCSc2nnnn2-c2cc(C)ccc2C)cc1	-3	-43	-1	5%	6.0
